Assay outcomes: PubChem, National Center for Advancing Translational Sciences (NCATS)
SARS PLpro yeast – inhibitors of SARS-CoV papain-like protease in yeast; S. cerevisiae expressing SARS-CoV PLpro, growth rescue; control for the full effect not named in the record; Potency, µM (highest dose often 32.9 µM), for inactives: at the top dose activity, positive = growth rescue; hit rate 0.19% among 330,000; active means well fitted rising curve with a large enough effect; inconclusive means small, poorly fitted or top-dose-only effect; inactive means no such curve, though single readings can be large or run the other way; further: 0% is about no effect; nearly all actives have a fitted effect of over 55% in size; growth read by luminescence after 48 h
Cruzain inh noDet – cruzain (T. cruzi) inhibition without detergent; purified cruzain, Z-FR-AMC fluorescence, no detergent; hit rate 2.3% among 200,000; P25779; Potency, µM, inactives show max response, negative = inhibition, usual class: inhibitors; AID 1476;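 further: plate controls were enzyme without inhibitor for no effect and buffer without enzyme for full effect; nearly all actives have a fitted effect of over 40% in size; top concentration of the series not given in the record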
Target sequence (P25779 123-467 limits assumed): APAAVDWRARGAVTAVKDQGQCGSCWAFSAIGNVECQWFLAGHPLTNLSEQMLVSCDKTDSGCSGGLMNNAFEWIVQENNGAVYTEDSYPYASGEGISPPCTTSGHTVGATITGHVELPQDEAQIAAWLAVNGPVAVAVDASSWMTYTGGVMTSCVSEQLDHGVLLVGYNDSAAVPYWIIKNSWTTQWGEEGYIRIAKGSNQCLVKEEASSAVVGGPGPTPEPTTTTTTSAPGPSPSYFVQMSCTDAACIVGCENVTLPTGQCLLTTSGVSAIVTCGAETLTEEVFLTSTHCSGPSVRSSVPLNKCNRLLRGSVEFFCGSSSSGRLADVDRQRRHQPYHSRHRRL
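Detergent-free condition (0.00005% Triton X-100) in acetate buffer pH 5.5 with DTT. 1.5 nM enzyme and compound were pre-mixed 15 min, then 2 uM Z-FR-AMC substrate added; reaction progress from fluorescence change between first and third reads (60 s).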
2A StopGo – lowers the luciferase signal of an FMDV 2A StopGo reporter; AID 1159524; hit rate 1.2% among 410,000; Potency, µM (doses to about 57.9 µM), without a hit: at the top dose signal change, negative = less light; human cells with a luciferase reporter of 2A StopGo recoding; control for the full effect not named in the record; active = well fitted falling curve with a large enough effect; inconclusive = small, poorly fitted or top-dose-only effect; inactive = no such curve, though single readings can be large or run the other way; tested in HEK293T cells; further: on the % scale 0 is the no-effect control and ±100 the full control effect; nearly all actives have a fitted effect of over 45% in size; luciferase light after 4 h
LASV entry inh – Lassa virus entry inhibition. Lassa virus pseudotype entry inhibition, cell reporter; control for the full effect not named in the record. Potency, µM (doses to about 37.9 µM), for inactives: top-dose activity change, negative = inhibition, actives largely listed as inhibitors. hit rate 1.2% among 300,000. AID 540256; active means well fitted inhibition curve with a large enough effect; inconclusive means small, poorly fitted or top-dose-only effect, or effect the other way; inactive means flat fitted curve, though single readings scatter; tested in HEK293 cells; further: on the % scale 0 is the no-effect control and ±100 the full control effect; nearly all actives have a fitted effect of over 50% in size; luciferase read-out
RE007 growth inh – less growth of the S. pombe RE007 Vpr strain | S. pombe RE007 Vpr strain, BacTiter-Glo ATP luminescence, 24 h; control for the full effect not named in the record | Potency, µM (doses to about 92.2 µM), without a hit: at the top dose activity change, negative = less growth | hit rate 0.21% among 360,000 | AID 651644; active = well fitted falling curve with a large enough effect; inconclusive = small, poorly fitted or top-dose-only effect; inactive = no such curve, though single readings can be large or run the other way;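 further: on the % scale 0 is the no-effect control and ±100 the full control effect; nearly all actives have a fitted effect of over 50% in size; the assay follows cell death caused by Vpr and the record does not say whether a fall means rescue or toxicity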
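Fission yeast RE007 carrying one integrated HIV-1 vpr copy, seeded at OD 0.01 in PMG+AL medium with 23 nL pinned compound. Grown 24 h at 30 degrees; viability read by BacTiter-Glo luminescence after 5 min.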
Cruzain inh Det – cruzain (T. cruzi) inhibition with detergent; purified cruzain, Z-FR-AMC fluorescence, 0.01% Triton; hit rate 0.43% among 200,000; P25779; Potency, µM, for the others: max response, negative = inhibition, usual class: inhibitors;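 further: plate controls were neutral wells for no effect and buffer without enzyme for full effect; nearly all actives have a fitted effect of over 40% in size; top concentration of the series not given in the record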
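Sodium acetate buffer (100 mM, pH 5.5) containing 5 mM DTT and 0.01% Triton X-100 hosted 1.5 nM cruzain and test compound for 15 min at room temperature. Cleavage of 2 uM Z-FR-AMC was then tracked by fluorescence.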
NS1 function inh – blocks influenza NS1 protein function; S. cerevisiae slowed by influenza A NS1, growth recovery by OD600; Potency, µM (titrated, usually from 46.1 µM), without a hit: at the top dose activity, positive = more growth; hit rate 0.4% among 270,000; AID 2326; active means well fitted rising curve with a large enough effect; inconclusive means small, poorly fitted or top-dose-only effect; inactive means no such curve, though single readings can be large or run the other way; further: nearly all actives have a fitted effect of over 50% in size
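Compounds were scored for reversing the slow growth caused by influenza A NS1 in S. cerevisiae, measured by optical density at 600 nm. Assay medium contained 2% galactose at pH 6.0; NS1-free yeast of the same strain were the positive control.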
MARV entry inh – Marburg virus entry inhibition; Marburg virus pseudotyped entry inhibition, cell reporter; control for the full effect not named in the record; about a third of the inactives were read at about 46 µM; Potency, µM (highest dose often 37.8 µM), for the others: at the highest dose activity change, negative = inhibition, usual class: inhibitors; hit rate 1.8% among 300,000; active = well fitted inhibition curve with a large enough effect; inconclusive = small, poorly fitted or top-dose-only effect, or effect the other way; inactive = flat fitted curve, though single readings scatter; tested in HEK293 cells; about a fifth of its hits are not listed in these tables; further: on the % scale 0 is the no-effect control and ±100 the full control effect; luciferase read-out
Starred values were filed as active, the others as inactive; ? = inconclusive; · = not tested or not shown; & = joins results of further samples; [ ] = dose if it differs, or a comment. Unless noted, the call rests on the fitted dose curve; in most records, active means well fitted curve in the direction sought with a large enough effect; inconclusive means small, poorly fitted or top-dose-only effect, or another doubt; inactive means no such curve, though single readings can be large; an effect the other way counts as inactive or inconclusive. Potency means the concentration at half of the fitted maximal effect. Random draw from the library (roughly 4.5% active in at least one column).

SMILES	SARS PLpro yeast	Cruzain inh noDet	2A StopGo	LASV entry inh	RE007 growth inh	Cruzain inh Det	NS1 function inh	MARV entry inh
OC(CNCCCN1CCCCC1)COc1ccccc1 (configuration not stated)	-3%	4%	-23%	-1%	25%	4.6%	-2%	?
O=C1CN(C(=O)c2ccco2)C(c2ccc(F)cc2)c2cc(Cl)ccc2N1 (configuration not stated)	·	·	-14%	1%	4%	·	-6%	5%
O=C(Nc1cccc(F)c1)c1ccccc1-c1ccccc1	17%	0%	-14%	8%	23%	-4.2%	-13%	2%
COc1ccc(C2C3=C(CC(C)(C)CC3=O)Nc3n[nH]c(C)c32)cc1 (configuration not stated)	0%	-1%	-12%	17%	-4%	-6.0%	10%	?
CC1=NN(c2cccc(C(=O)O)c2)C(=O)/C1=C\C=C\c1ccco1	9%	25%	-20%	-4%	-7%	-14%	8%	?
O=C(Nc1ccccc1)C1C2CCCCC21 (configuration not stated)	3%	·	38%[activator]	1%	-16%	·	6%	16%
COc1ccc2c(c1)c(CC(=O)Nc1ccc(C(C)=O)cc1)c(C)n2C(=O)c1ccc(Cl)cc1	4%	?	18%&0%	?	0%	-3.1%&-7.1%	22%	?
CCCN1Cc2cccc(C(=O)NC3CCCC3)c2C1=O	-7%	5%	6%	9%	8%	-0.9%	-54%	-1%
CCOC(=O)Cn1c(N2CCCCCC2)nc2c1c(=O)[nH]c(=O)n2C	4%	-6%	8%	1%	4%	1.3%	1%	-20%
Cc1c(CCC(=O)NCCCn2ccnc2)c(=O)oc2cc3occ(C(C)(C)C)c3cc12	0%	·	-5%	?	-4%	·	4%	-12%[46.1 µM]
O=C(CN1C(=O)CCS(=O)(=O)c2ccccc21)NCc1ccc2c(c1)OCO2	?	5%	5%	-2%	-11%	3.6%	2%	15%
COc1ccc(C(=O)Nc2cccc3nc(C)ccc23)cc1OC	-3%	·	-6%	10%[46.1 µM]	10%	·	?	13%[46.1 µM]
COc1ccc2nnc(-c3ccc(C(F)(F)F)cc3)n2n1	0%	·	-2%	·	-2%	·	3%	·
C/C(=N\O)C(=O)NCC1CCNCC1	-7%	0%	-3%	-4%	23%	-0.4%	-4%	?
Cc1ccc(CN(C(=O)Cn2nnc3ccccc32)C(C(=O)NCc2ccco2)c2ccc(C)o2)cc1 (configuration not stated)	0%	9%	-25%	-26%	-4%	-6.5%	15%	3%
CC(=O)Nc1ccc(OCC(O)Cn2nc(C)c(C(C)=O)c2C)cc1 (configuration not stated)	-6%	-7%	·	1%	-7%	0.0%	-1%	17%
CN(c1ccc(OCC(=O)NCCc2ccccc2)cc1)S(=O)(=O)c1ccc(Cl)cc1	3%	·	24%	?	1%	·	·	-20%
Cc1ccc(C(=O)NCC(c2ccco2)N2CCc3ccccc3C2)cc1C (configuration not stated)	-1%	·	0%	-25%	-5%	·	·	-16%
Cc1ccc(NC(=O)Cn2nnc(C(=O)NCCc3ccccc3)c2N)cc1	·	?	-4%	36%[46.1 µM]	·	-2.4%	·	-30%[46.1 µM]
Cc1ccc(CN2CC(C(=O)OCc3ccccc3Cl)CC2=O)cc1 (configuration not stated)	-7%	·	-2%	6%	-9%	·	·	2%
COc1ccc(CN(C)C(=O)c2sccc2-c2ccccc2)c(OC)c1	1%	·	-11%	?	-1%	·	-58%	-29%[46.1 µM]
CCN(CC(=O)Nc1c(F)cccc1F)C(=O)CNC(=O)C1CCCCC1	0%	·	-3%	-5%	-11%	·	·	2%[46.1 µM]
CCOC(=O)c1[nH]c2ccccc2c1NC(=O)CN(C)C	-1%	1%	-6%	-2%	4%	0.1%	17%	-5%&-5%
CNC(=O)c1[nH]cnc1C(=O)Nc1ccccc1C	?	-6%	3%	-3%	8%	1.5%	-5%	15%
COC(=O)c1cc(NC(=O)c2cccnc2)cc(C(=O)OC)c1	1%	·	-5%	·	2%	·	5%	·
Other records follow:
SMILES	SARS PLpro yeast	Cruzain inh noDet	2A StopGo	LASV entry inh	RE007 growth inh	Cruzain inh Det	NS1 function inh	MARV entry inh
C=C1C(=O)O[C@@H]2C[C@@H](C)[C@@H]3C4OC4C(=O)[C@@]3(C)[C@@H](O)[C@H]12 (some centres not stated)	-4%	·	?	·	-2%	·	0%	·
Cc1ccc(CONC(=O)/N=C/N(C)C)cc1	-2%	-4%	5%	6%	2%	2.7%	9%	6%
CCCS(=O)(=O)N1CCCC(C(=O)NC2CCCCC2)C1 (configuration not stated)	-7%	3%	14%	0%	4%	0.5%	2%	11%
CC(C)c1ccc(C(=O)Nc2ccc(CN3CCOCC3)cc2)cc1	-1%	·	-6%	-14%[46.1 µM]	25%	·	-5%	?
COc1ccccc1C(=O)NN=C1CCN(Cc2ccccc2)CC1	-7%	-3%	-16%	3%	-17%	-0.9%	22%	15%
C[n+]1ccccc1/C=C/c1ccc2ncccc2c1	-3%	·	?	·	1%	·	-2%	·
CCOC(=O)/C(=C/C=C1\Sc2cc(OCC)c(OCC)cc2N1CC)C(C)=O	1%	·	-16%	?	-25%	·	·	-2%[46.1 µM]
Cc1ccccc1OCC1Cn2c(nc3c2c(=O)n(C)c(=O)n3C)O1 (configuration not stated)	-6%	·	?	-18%	10%	·	-2%	?
Cc1ccc(CSc2nnc(-c3ccccn3)n2N)cc1	-1%	·	17%	·	9%	·	-3%	·
CC1C(=O)N(Cc2ccc(F)cc2)c2ccccc2N1C(=O)c1c(F)cccc1F (configuration not stated)	-6%	·	22µM*	·	-10%	·	-7%	·
COc1cc(/C=C(\C#N)c2nc3ccccc3c(=O)[nH]2)cc(OC)c1OC	·	-14%	-7%	1%[46.1 µM]	·	0.4%	·	·
O=C1C2C3C=CC(CC3)C2C(=O)N1c1ccc(Cl)cc1Cl (configuration not stated)	2%	·	-7%	·	20%	·	-4%	·
O=C(O/N=C\c1ccc(N2CCCCC2)c([N+](=O)[O-])c1)c1cccc(Cl)c1	0%	-8%	3%	0%	-18%	1.0%	3%	-7%
CCOc1ccc(NC(=O)c2[nH]c(C)c(C(C)=O)c2C)cc1	-2%	·	25%	·	-3%	·	-7%	·
Cc1ccc(NC(=O)CSc2nccn(-c3ccc4c(c3)OCCO4)c2=O)cc1	1%	·	-5%	-1%	-18%	·	·	-1%
Nn1c(SCc2csc(-c3ccccc3)n2)nnc1-c1cccs1	?	-1%	13%	17%	-10%	5.0%	-3%	?
Cc1cc(C)n(C(=O)CCC(=O)NCc2ccccc2)n1	7%	-2%	-1%	-22%	-2%	1.5%	-2%	9%
O=C(Oc1ccc(Br)cc1C(=S)N1CCOCC1)c1ccccc1	-5%	·	26%	4%	-10%	·	-10%	?
CC(=O)NS(=O)(=O)c1ccc(N=NN2CCCCCC2)cc1	0%	·	-2%	?	17%	·	1%	25%[46.1 µM]
Cc1ccc(/C=C/C(=O)Nc2cccc3cccnc23)o1	-33%	-8%	20%	14%	-25%	-11%	-6%	-4%
OCCOc1cccc(CN2CCC(CO)(CCOc3ccccc3)CC2)c1	-1%	·	-13%	·	6%	·	-1%	·
CCC(C)C1NC(=O)C2CCCN2C(=O)C(CC(C)C)OC(=O)CCNC(=O)C(C)N(C)C(=O)C(C(C)C)N(C)C1=O (configuration not stated)	·	·	-20%	3.2µM*	-8%	·	·	2µM*
Cn1c(=O)n(C)c2cc(NC(=O)c3ccccc3NS(C)(=O)=O)ccc21	3%	·	15%	·	3%	·	-5%	·
Cc1cccc(Oc2ncc(-c3ccc(Cl)cc3)cn2)c1	4%	?	-8%	13%	18%	0.3%	1%	17%[46.1 µM]
CC1CCCCN1C(=S)NC(=O)c1cccs1 (configuration not stated)	3%	·	0%	·	0%	·	5%	·

Only RE007 growth inh and Cruzain inh Det, for some of the entries so far:
SMILES | RE007 growth inh | Cruzain inh Det
CC1C(=O)N(Cc2ccc(F)cc2)c2ccccc2N1C(=O)c1c(F)cccc1F (configuration not stated) | -10% | ·
O=C(Oc1ccc(Br)cc1C(=S)N1CCOCC1)c1ccccc1 | -10% | ·
CC1CCCCN1C(=S)NC(=O)c1cccs1 (configuration not stated) | 0% | ·

(list continues)
SMILES	SARS PLpro yeast	Cruzain inh noDet	2A StopGo	LASV entry inh	RE007 growth inh	Cruzain inh Det	NS1 function inh	MARV entry inh
COC(=O)C1CC(O)CN1C(=O)Nc1ccccc1 (configuration not stated)	1%	·	-13%	14%	9%	·	·	9%
Cn1cccc1/C=C1\C(=O)NC(=O)N(Cc2ccccc2)C1=O	1%	·	-17%	-18%	-9%	·	-4%	-10%[46.1 µM]
Cc1ccc(-n2ncc(C(=O)N3CCCCC3)c2C2CCN(C(=O)OC(C)(C)C)CC2)c(C)c1	·	?	-12%	?	·	-2.2%	·	·
Cc1cc(C)c2[nH]c(C)c(CN3CCCCCC3)c(=O)c2c1	-4%	·	4%	·	3%	·	2%	·
Cc1oc(CC(C)C)c(CN2CCCC2)c1C(=O)O	3%	3%	1%	23%	7%	0.8%	0%	4%
Cc1ccc(CCC(=O)Nc2ccccc2F)s1	-2%	·	-6%	?	-21%	·	-7%	7%[46.1 µM]
CC(C)OC(=O)Cn1nc(C(c2ccccc2)c2ccccc2)oc1=O	1%	·	-6%	·	3%	·	-11%	·
O=C(CCCn1c(=O)[nH]c2ccccc2c1=O)Nc1ccc(F)cc1	0%	·	0%	6%	5%	·	·	5%
COc1cc(OC)cc(C(=O)NN(CCC#N)C2=NS(=O)(=O)c3ccccc32)c1	-1%	·	-6%	1%	13%	·	-3%	10%
C=CCNc1oc(-c2cccc3ccccc23)nc1C#N	-2%	14%	·	5%	-13%	10%	-5%	8%
COc1ccc(CCNC(=O)C2CCN(C(=O)c3ccccc3)CC2)cc1	-2%	·	-13%	·	-9%	·	4%	·
CN1CCN(CCC(=O)Nc2ccc(Br)cc2)CC1	0%	·	22%	·	-2%	·	3%	·
CN=C1SC(CC(=O)Nc2ccc(C(C)=O)cc2)C(=O)N1C (configuration not stated)	·	·	5%	6%	9%	·	·	-1%
